Sa growth inh: inhibitors of Staphylococcus aureus growth at 42 °C; S. aureus RN4220 growth, OD600, 20 h; stronger effect = lower value; 170,000 compounds, 0.53% hits; relative growth, % (concentration not given with the values);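 active = growth at 42 °C up to 50% and 20 or more points under that at 30 °C, or under 10% at both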;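 also: 300 nL library stock went into each well; scaled to the means of positive and negative controls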
GIV Gai3 FP: inhibitors of GIV GBA-motif binding to rat Galpha-i3 | percent of control (FP), % (test concentration not listed) | AID 1224905 | P08753 | Galpha-i3/FITC-GIV peptide fluorescence polarization, 90 min; stronger effect = lower value; scaled: aluminum fluoride 0%, vehicle 100% | 210,000 compounds, 0.42% hits;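 active = replicate mean at 85% of control or lower, very high polarization wells dropped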;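 also: wells of about 15 µL received 100 nL stock; the first replicate is given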
Target sequence (P08753 whole entry, looked up): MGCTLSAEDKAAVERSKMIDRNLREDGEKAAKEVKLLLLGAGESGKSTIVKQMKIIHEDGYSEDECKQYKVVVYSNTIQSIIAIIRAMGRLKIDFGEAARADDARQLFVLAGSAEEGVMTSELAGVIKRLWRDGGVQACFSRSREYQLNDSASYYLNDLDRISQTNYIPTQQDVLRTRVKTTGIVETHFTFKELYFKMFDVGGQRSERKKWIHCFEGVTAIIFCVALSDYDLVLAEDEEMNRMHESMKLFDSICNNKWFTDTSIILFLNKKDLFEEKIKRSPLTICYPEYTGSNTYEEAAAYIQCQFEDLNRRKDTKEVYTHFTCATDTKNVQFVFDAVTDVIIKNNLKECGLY
HCMV NEC inh: disrupts HCMV UL50-UL53 complex binding; inhibition, % (no concentration beside the values); HTRF UL50-UL53 interaction, normalized percent inhibition; 190,000 compounds, 0.15% hits; AID 1918969;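 active = both replicates at 50% or more, plus weaker picks with an unusually low signal ratio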;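 also: stock transfer was 100 nL into about 20 µL; 0% = negative control wells and 100% = wells with untagged competitor protein; inactives centre near -12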
Sa growth inh second temp: further read-out of Sa growth inh, marked with its call; relative growth, %; measured here: growth at 30 °C;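 optical density after 20 h as mean of two plates; 100% = untreated growth and lower means inhibition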
* = called active by the depositor; nt = no result given.

Molecule | HCMV NEC inh | Sa growth inh second temp | Sa growth inh | GIV Gai3 FP
O=C(c1ccc(S(=O)(=O)N2CCCCC2)cc1)N(c1ccccc1)C1C=CS(=O)(=O)C1 (stereo unspecified) | -24 | 85 | 94 | 104
CCC1=C/C(=C\c2ccc3c(c2)OCO3)C(=O)S1 | nt | 9 | 46 | 104
Cc1ccc(-c2c(C(F)(F)F)nn3c(N4CCOCC4)cc(C)nc23)cc1 | 5 | nt | nt | 99
COC(CN(C)c1ncnc2sccc12)OC | -18 | 86 | 107 | 93
CCC1CC(O)C(C)C(C)S1 (stereo unspecified) | 11 | 101 | 97 | nt
Cc1nc2ccccc2c2oc(C(=O)NCCCN3CCCC3=O)cc12 | -16 | 90 | 92 | 95
O=c1[nH][nH]c(=O)c2c(N=Cc3c[nH]c4ccccc34)cccc12 | -62 | 116 | 108 | 106
CN1C/C(=C\c2ccc(N(C)C)cc2)C(=O)/C(=C/c2ccc(N(C)C)cc2)C1 | -4 | 101 | 90 | 153
COc1ccc(NC(=O)Cn2c(=O)c3ccccc3n3nncc23)cc1Cl | -12 | 94 | 116 | 106
O=c1c(S(=O)(=O)c2ccc(F)c(Cl)c2)c[nH]c2cc(F)c(Cl)cc12 | -16 | nt | nt | 101
Cc1ccc2nsnc2c1N(S(C)(=O)=O)S(C)(=O)=O | -42 | 91 | 97 | 98
O=C(NC1CCCCCC1)C(F)(F)F | -9 | 99 | 106 | 98
O=C(CCC(=O)n1ncc2ccc(Cl)cc21)N1CCN(c2ccccc2)CC1 | -20 | 63 | 95 | 100
O=C(CSc1nnc(-c2cccs2)n1-c1ccccc1)NCCC1=CCCCC1 | -1 | 107 | 75 | nt
CCOC(=O)CSc1nc2ccc(NC(=O)c3ccc(C)cc3)cc2s1 | -34 | 88 | 96 | 102
CC(C)(C)c1oc(C(=O)O)cc1CN1CCCC1 | -19 | 89 | 103 | nt
CCC(C)NC(=O)c1cn(C)c(=O)c2cc(OC)c(OC)cc12 (stereo unspecified) | -30 | 85 | 75 | 100
CCOC(=O)c1c(C)oc2c1c1c(c3ccccc32)OCN(Cc2ccco2)C1 | -19 | 95 | 105 | nt
CS(=O)(=O)c1noc(-c2ccc(Cl)cc2)c1C#N | 0 | 85 | 93 | 102
COc1ccc(-c2cn3nc(N4CCC(C(=O)O)CC4)sc3n2)cc1 | nt | 84 | 96 | 97
Cc1cc(-c2csc(CC#N)n2)c(C)n1Cc1ccc2c(c1)OCO2 | -27 | 75 | 72 | nt
CCOC(=O)/C(C#N)=C/c1ccc(-c2cccs2)s1 | -44 | 85 | 97 | 272
Cc1ccccc1NC(=O)Cn1c(C)cc(C)c(C#N)c1=O | -39 | 84 | 86 | nt
COc1ccc(CNC(=O)C2CCC(CNS(=O)(=O)c3cccs3)CC2)cc1 (stereo unspecified) | -11 | 77 | 100 | 102
COc1ccc(S(=O)(=O)NCCc2csc3nc(-c4ccc(Cl)cc4)nn23)cc1C | nt | 86 | 128 | 95
COc1cc(-c2noc(-c3ccc(NCc4ccco4)c([N+](=O)[O-])c3)n2)cc(OC)c1OC | -31 | 82 | 96 | 103
COc1ccc(CN=C(C#N)C2=C(O)c3ccccc3C2=O)cc1 | -8 | 81 | 105 | 101
CC1(C)CC(=O)C2=C(C1)Nc1nc(=S)[nH]c(N)c1C2c1ccncc1 (stereo unspecified) | 1 | 70 | 76 | nt
Cc1ccccc1OCCCCn1c(-c2ccc(Cl)cc2)nc2ccccc2c1=O | -19 | 89 | 108 | 103
Cc1nc(C)c(Oc2ccc(Cl)cc2Cl)c(NCc2ccccc2)n1 | -5 | 93 | 103 | 98

Overlap with the part before: 2 entries; new compounds follow.
Molecule | HCMV NEC inh | Sa growth inh second temp | Sa growth inh | GIV Gai3 FP
Cc1ccccc1OCCCCn1c(-c2ccc(Cl)cc2)nc2ccccc2c1=O | -19 | 89 | 108 | 103
Cc1nc(C)c(Oc2ccc(Cl)cc2Cl)c(NCc2ccccc2)n1 | -5 | 93 | 103 | 98
COc1ccccc1N(CC(=O)Nc1ccc(C)c(Cl)c1)S(=O)(=O)c1ccc(C)cc1 | -28 | 88 | 90 | 101
COc1ccc(-c2cccc(NS(=O)(=O)c3ccccc3)c2)nn1 | -35 | 108 | 96 | 102
CCOC(=O)c1ccc(NCc2ccc(N(C)C)cc2)cc1 | nt | 95 | 107 | 99
NCC1OC(O[C@@H]2[C@H](O)C(OC3C(O)C(N)CC(N)C3OC3OC(CO)C(O)C(O)C3N)O[C@@H]2CO)C(N)C(O)C1O (stereo partly specified) | -8 | nt | nt | 102
CC1(C)CC(=O)C2=C(C1)OC1=C(C(=O)CC(C)(C)C1)C2c1ccccc1O | -11 | nt | nt | 102
COCCn1c(=O)[nH]c2cc(C(=O)Nc3ccc(OC)cc3)ccc2c1=O | 6 | 91 | 89 | 103
COc1ccc2[nH]cc(S(=O)(=O)c3ccc(C)cc3)c2c1 | -23 | 83 | 143 | nt
CC(C)=C1C(=O)Nc2ccc(S(=O)(=O)Nc3ccccc3)cc21 | -46 | 87 | 104 | 109
Cc1ccc(-c2cnc(-c3ccc(Br)cc3)o2)cc1 | nt | 98 | 116 | 107
CCOC(=O)c1c(-c2ccccc2)oc2c1cc(OC(=O)c1cccs1)c1ccccc12 | -9 | nt | nt | 103
CN(C(=O)Cn1c(=O)oc2ccccc21)C1CCCCC1 | -8 | 96 | 108 | 98
CCc1cc2c(=O)oc(-c3ccc(F)cc3)nc2s1 | -23 | nt | nt | 96
Cc1ccc2c(c1)N(CC(=O)NCCCN1CCCCC1C)C(=O)c1cccnc1O2 (stereo unspecified) | nt | 96 | 111 | 113
Nc1nc(Nc2ccc(Cl)c(Cl)c2)nc(-c2cc3ccccc3o2)n1 | -10 | 97 | 116 | 104
COc1cc(OC)c(OC)cc1/C=C1/SC(=S)N(CC(=O)O)C1=O | -51 | nt | nt | 134
CCSc1nccc(-c2ccc3c(c2)CCC(C)(C)O3)n1 | -43 | 89 | 93 | 103
COc1ccc(C(=O)NCCn2cc(SCC(=O)Nc3ccccc3)c3ccccc32)cc1OC | -22 | 79 | 88 | 101
CCCN1C2CCCC1CC(NC(=O)NC1CCCCC1)C2 (stereo unspecified) | -24 | 104 | 106 | 100
Cc1cccc(-n2c(SCC(=O)c3ccccc3)nnc2-c2ccc(Br)cc2)c1 | nt | 88 | 105 | 106
CN1C(C(=O)Nc2cccc(O)c2)=CC(c2cccs2)=NS1(=O)=O | -69 | 82 | 89 | 105
Nc1cccc(C(=O)NC23CC4CC(CC(C4)C2)C3)c1 | -5 | 91 | 115 | 101
Cc1n(O)c2c3c(c4c(c2[n+]1[O-])n(O)c(C)[n+]4[O-])[n+]([O-])c(C)n3O | 12 | 104 | 88 | 104
CCOc1ccc2c(c1)c(=O)c(S(=O)(=O)c1ccccc1)cn2CC(=O)Nc1ccccc1OC | -42 | 81 | 102 | 106
CCOC(=O)c1cc(-c2ccc3c(c2)OCCO3)n[nH]1 | -16 | 76 | 99 | 104
CC(C)C(=O)Nc1nnc2n1CCS2 | nt | 85 | 112 | 103
O=C(CCc1ccccc1)Oc1ccc(F)cc1 | -2 | 95 | 87 | 103
O=C(c1ccco1)N1CCN(S(=O)(=O)c2ccc(-c3cc(C(F)(F)F)on3)o2)CC1 | 0 | nt | nt | 109
CCc1c(C)[nH][n+]2cnn(Cc3ccc(Cl)cc3)c2c1=O | -31 | 85 | 103 | 104
COc1cc(CO)ccc1OCC(=O)NC1CCCCC1 | -5 | 102 | 111 | 104
O=C(NCCNc1nccc(C(F)(F)F)n1)c1cccc(C(F)(F)F)c1 | nt | 81 | 92 | 101

22 successive entries from above, for reference:
Molecule | HCMV NEC inh | Sa growth inh second temp | Sa growth inh | GIV Gai3 FP
COCCn1c(=O)[nH]c2cc(C(=O)Nc3ccc(OC)cc3)ccc2c1=O | 6 | 91 | 89 | 103
COc1ccc2[nH]cc(S(=O)(=O)c3ccc(C)cc3)c2c1 | -23 | 83 | 143 | nt
CC(C)=C1C(=O)Nc2ccc(S(=O)(=O)Nc3ccccc3)cc21 | -46 | 87 | 104 | 109
Cc1ccc(-c2cnc(-c3ccc(Br)cc3)o2)cc1 | nt | 98 | 116 | 107
CCOC(=O)c1c(-c2ccccc2)oc2c1cc(OC(=O)c1cccs1)c1ccccc12 | -9 | nt | nt | 103
CN(C(=O)Cn1c(=O)oc2ccccc21)C1CCCCC1 | -8 | 96 | 108 | 98
CCc1cc2c(=O)oc(-c3ccc(F)cc3)nc2s1 | -23 | nt | nt | 96
Cc1ccc2c(c1)N(CC(=O)NCCCN1CCCCC1C)C(=O)c1cccnc1O2 (stereo unspecified) | nt | 96 | 111 | 113
Nc1nc(Nc2ccc(Cl)c(Cl)c2)nc(-c2cc3ccccc3o2)n1 | -10 | 97 | 116 | 104
COc1cc(OC)c(OC)cc1/C=C1/SC(=S)N(CC(=O)O)C1=O | -51 | nt | nt | 134
CCSc1nccc(-c2ccc3c(c2)CCC(C)(C)O3)n1 | -43 | 89 | 93 | 103
COc1ccc(C(=O)NCCn2cc(SCC(=O)Nc3ccccc3)c3ccccc32)cc1OC | -22 | 79 | 88 | 101
CCCN1C2CCCC1CC(NC(=O)NC1CCCCC1)C2 (stereo unspecified) | -24 | 104 | 106 | 100
Cc1cccc(-n2c(SCC(=O)c3ccccc3)nnc2-c2ccc(Br)cc2)c1 | nt | 88 | 105 | 106
CN1C(C(=O)Nc2cccc(O)c2)=CC(c2cccs2)=NS1(=O)=O | -69 | 82 | 89 | 105
Nc1cccc(C(=O)NC23CC4CC(CC(C4)C2)C3)c1 | -5 | 91 | 115 | 101
Cc1n(O)c2c3c(c4c(c2[n+]1[O-])n(O)c(C)[n+]4[O-])[n+]([O-])c(C)n3O | 12 | 104 | 88 | 104
CCOc1ccc2c(c1)c(=O)c(S(=O)(=O)c1ccccc1)cn2CC(=O)Nc1ccccc1OC | -42 | 81 | 102 | 106
CCOC(=O)c1cc(-c2ccc3c(c2)OCCO3)n[nH]1 | -16 | 76 | 99 | 104
CC(C)C(=O)Nc1nnc2n1CCS2 | nt | 85 | 112 | 103
O=C(CCc1ccccc1)Oc1ccc(F)cc1 | -2 | 95 | 87 | 103
O=C(c1ccco1)N1CCN(S(=O)(=O)c2ccc(-c3cc(C(F)(F)F)on3)o2)CC1 | 0 | nt | nt | 109

The listing continues:
Molecule | HCMV NEC inh | Sa growth inh second temp | Sa growth inh | GIV Gai3 FP
CN(C(=O)c1ccc(F)cc1)c1ccc(OCC(=O)NCc2ccncc2)cc1 | -29 | 85 | 98 | nt
COc1ccc(C2=NN(C(=O)CCC(=O)O)C(c3ccc(OC)c(OC)c3)C2)cc1 (stereo unspecified) | -36 | nt | nt | 111
COc1ccc(Br)cc1CNC(=O)c1cnc2sc(N3CCCC3)nn2c1=O | nt | 91 | 97 | 102
Cc1ccc(C)c(NC(=O)CN(C)S(=O)(=O)c2cccc3cccnc23)c1 | -31 | 84 | 94 | 103
Cc1ccc(CNC(=O)c2c[nH]n3c(=O)c(Cc4ccc(Cl)cc4)c(C)nc23)cc1 | -18 | 60 | 56 | 100
CCCCc1c(C)c2ccc(OC)c(/C(C)=N\O)c2oc1=O | -17 | 75 | 94 | 101
Cc1nc(N2CCOCC2)[nH]c(=O)c1Cc1c(F)cccc1Cl | -6 | 96 | 104 | 108
Cc1onc(-c2ccccc2Cl)c1C(=O)N1CCOC(c2ccccc2)C1C (stereo unspecified) | 3 | 92 | 95 | 95
Cc1nn(CCCC(=O)NCc2ccccn2)c(=O)c2cc3sccc3n12 | -1 | 83 | 88 | 104
O=S(=O)(c1ccc(Br)cc1)c1nnn2c1nc(NCCc1ccccc1)c1sccc12 | nt | 94 | 123 | 102
NC(=O)c1c2c(nc3ccccc13)CCCC2 | -30 | 94 | 97 | nt
N#C/C(=C\Nc1ccc(F)c(Cl)c1)C(=O)C1CC1 | -31 | 92 | 97 | 108
CC[N+](CC)=c1scc(-c2ccccc2)s1 | -39 | 57 | 101 | nt
CCOC(=O)c1cccc(NC(=O)C(C)(C)CC)c1 | -15 | 88 | 93 | nt
CCOC(=O)Cn1c(=O)oc2cc(S(=O)(=O)Nc3cc(OC)cc(OC)c3)ccc21 | -21 | 78 | 98 | 97
COc1ccc(NS(=O)(=O)c2ccc3oc(SC)nc3c2)cc1 | -25 | 92 | 95 | nt
CCn1cc(CNC(=O)CCc2ccc(OC)cc2)cn1 | -16 | 86 | 84 | 103
Cc1cccc(NC(=O)CC2Nc3ccccc3NC2=O)c1 (stereo unspecified) | -32 | 65 | 88 | 102
Cc1ccc(C)c(NS(=O)(=O)c2ccc3oc(=O)c4ncn(C)c4c3c2)c1 | nt | 84 | 117 | 110
COc1ccc(S(=O)(=O)C(F)(F)F)cc1NC(C)=O | 13 | 100 | 95 | nt
CCNC(=S)N1N=C2c3ccccc3CCC2C1c1ccc(F)cc1 (stereo unspecified) | -38 | 86 | 103 | 107
O=S(=O)(Nc1ccccc1)c1cccc2nsnc12 | -123 | 104 | 101 | 100
CCCCN(CC)c1ncnc2ccc(Br)cc12 | -11 | 79 | 82 | 106
COc1ccc(-c2cc3ncc(C(=O)c4cc(C)ccc4O)cn3n2)cc1 | -22 | nt | nt | 99
O=C(NC(c1ccccc1)c1ccccc1)N1CCCCC1 | -22 | 94 | 103 | 100
CCCNC(=O)Nc1cccc(-c2noc(/C=C/c3ccc(C)cc3)n2)c1 | -19 | nt | nt | 105
CCn1c(=O)c(C(=O)NC)c(O)c2ccccc21 | -4 | 83 | 98 | nt
CCCOc1cccc(C(=O)Nc2cccc(-c3nc4ncccc4o3)c2C)c1 | nt | 85 | 95 | 104

Compound activity from PubChem BioAssay.
